High-throughput results deposited in PubChem BioAssay by National Center for Advancing Translational Sciences (NCATS).
hNpr1 antagonist – antagonists of human natriuretic peptide receptor Npr1. P16066. HEK293 hNpr1 GloSensor cGMP, ANP-stimulated luminescence. Potency, µM (doses to about 46.3 µM), inactives show at the top dose activity change, negative = inhibition, most hits filed as inhibitors. 76,000 tested, 1.6% active; active = well fitted inhibition curve with a large enough effect; inconclusive = small, poorly fitted or top-dose-only effect; inactive = no such curve, though single readings can be large or run the other way;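 note: nearly all actives have a fitted effect of over 60% in size; nearly all hits also lower the signal before the agonist is added; a reference antagonist and vehicle were the controls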
Target sequence (P16066 whole entry, looked up): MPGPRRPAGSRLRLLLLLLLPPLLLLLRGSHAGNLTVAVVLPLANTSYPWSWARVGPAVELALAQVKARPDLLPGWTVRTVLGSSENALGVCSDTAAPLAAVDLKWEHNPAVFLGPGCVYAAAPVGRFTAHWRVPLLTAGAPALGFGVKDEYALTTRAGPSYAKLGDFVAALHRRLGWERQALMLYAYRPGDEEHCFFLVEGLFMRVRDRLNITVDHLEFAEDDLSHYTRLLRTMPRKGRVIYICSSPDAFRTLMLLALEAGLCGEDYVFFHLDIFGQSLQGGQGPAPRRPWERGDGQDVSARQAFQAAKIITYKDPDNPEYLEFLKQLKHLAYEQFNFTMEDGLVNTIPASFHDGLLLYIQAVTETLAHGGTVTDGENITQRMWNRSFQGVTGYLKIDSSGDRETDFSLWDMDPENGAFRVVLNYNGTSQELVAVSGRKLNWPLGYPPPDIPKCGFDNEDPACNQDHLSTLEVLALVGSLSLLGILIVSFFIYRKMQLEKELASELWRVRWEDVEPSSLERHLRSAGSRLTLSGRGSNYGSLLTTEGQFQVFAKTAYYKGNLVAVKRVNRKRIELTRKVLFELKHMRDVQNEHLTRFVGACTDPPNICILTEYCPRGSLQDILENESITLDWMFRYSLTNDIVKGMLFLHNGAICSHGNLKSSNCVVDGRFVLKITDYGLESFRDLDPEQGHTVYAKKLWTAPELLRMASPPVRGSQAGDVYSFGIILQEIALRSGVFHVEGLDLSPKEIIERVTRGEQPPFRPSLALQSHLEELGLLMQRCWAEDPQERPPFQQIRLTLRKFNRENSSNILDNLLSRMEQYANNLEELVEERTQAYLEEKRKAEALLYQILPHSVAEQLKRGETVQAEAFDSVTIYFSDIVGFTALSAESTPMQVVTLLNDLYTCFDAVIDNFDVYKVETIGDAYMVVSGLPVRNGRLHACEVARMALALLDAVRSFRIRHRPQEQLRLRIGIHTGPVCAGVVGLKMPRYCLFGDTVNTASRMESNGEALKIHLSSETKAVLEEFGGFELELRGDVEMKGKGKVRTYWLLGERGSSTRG
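Compound pre-incubated 30 min at room temperature on GloSensor-loaded HEK293 cells stably carrying hNpr1 and the pGS-40F cGMP biosensor. Stimulation uses hNppA at 0.1 nM final; luminescence is taken at baseline and 20 min post-agonist.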
Starred values were filed as active, the others as inactive; ? = inconclusive; [ ] = remark or other dose. % is set by controls: 0 for no effect and ±100 for the full control effect; potency is the fitted concentration of half-maximal effect. Only part of the results is shown; the hit share may differ from the screen's.

SMILES	hNpr1 antagonist
Cc1n[nH]c(C)c1CNC(=O)C1CCCCC(=O)N1 (configuration not stated)	0%
CN1Cc2ncnc(N3CCN(Cc4ccccc4)CC3)c2CN(c2ccc(Cl)cc2)C1=O	-9%
COCCNC(=O)C1COC2(CCN(C(=O)C3CC3)CC2)N1C(=O)c1cccc(OC)c1 (configuration not stated)	-8%
CN1C(=O)COC[C@@H]1[C@H](O)c1ccc(NC(=O)C2CCC2)cc1	-5%[70.6 µM]
Cc1onc(C(=O)NCc2ccc3[nH]c(-c4ccc(F)cc4)c(C)c3c2)c1CO	?
O=C(CCc1cc2n(n1)CCNC2)NCc1nc2ccc(Cl)cc2[nH]1	0%
CC(=O)Nc1cccc(-c2n[nH]c3c2CC(=O)N(Cc2ccccc2F)C3)c1	?
COc1ccc(CCNC(=O)c2nnn3cc(C)[nH]c(=O)c23)cc1OC	2%
O=C(NCc1nnc2ccc(-c3ccc(Cl)cc3)nn12)c1ccc(Cl)s1	1%
CNC(=O)c1cccc2c1CCN2C(=O)Nc1ccc(C)cc1	6.3µM*
O=C(N[C@H](c1ccccn1)C1CC(O)C1)C1(c2ccc(Cl)cc2)CCC1 (some centres not stated)	?
Cc1ccc(-c2nnc(C3CN(C(=O)Cc4ccccc4)CC34CCOCC4)o2)cc1 (configuration not stated)	-2%
CC[C@H]1CN(C(=O)c2ccc(F)cc2)CC[C@H]1CC(=O)NCc1cccs1	-3%[70.6 µM]
C=CCN(C)C(=O)[C@@H](C)C1CC[C@@]2(C)Cc3sc(NC(=O)CC(C)(C)C)nc3[C@@H](C)[C@@H]2[C@H]1O (some centres not stated)	4%
O=C(C1CC(=O)N(c2n[nH]c3cccc(F)c23)C1)N1CCN(c2ccc(Cl)cc2)CC1 (configuration not stated)	?
CN(C)c1ccc(CN[C@H]2CO[C@H]3[C@@H]2OC[C@@H]3n2cc(CC3CCCCC3)nn2)cc1	?
CN(C)C(=O)C1CN(C(=O)NCc2ccccc2)CC12CCOCC2 (configuration not stated)	-5%
COc1cccc(-c2nc(N3CCOCC3)cc3c2CN(C)C3=O)c1OC	5%[70.6 µM]
Cc1ccsc1C(=O)N1CCc2nn(C)c(=O)n2CC1	-13%
CO[C@H]1C(=O)N(C2CCN(S(=O)(=O)C(C)C)CC2)[C@H]1c1ccncc1	3%
CCc1nncn1C1CCN(S(=O)(=O)c2cccc(Cl)c2)CC1	-5%
O=C(COc1ccccc1)N1CC2(C1)CN(Cc1ccc(Cl)cc1)C(=O)O2	4%[70.6 µM]
O=C(CCC1CCN(c2cc(NC3CC3)ncn2)CC1)NCc1ccc(F)cc1	-4%
O=C(c1ccccc1OCC1CCCN(C2CCCCC2)C1)N1CCCC1 (configuration not stated)	-4%
COc1ccc(Cl)cc1C(=O)N1CCC(c2n[nH]c(=O)n2-c2ccccc2)CC1	7%
COc1ccc(C2(C(=O)N3CCC4(CCC4OC)CC3)CC2)cc1 (configuration not stated)	-7%
CC(C)Oc1ccc(CN2CCc3nc(N(C)C)[nH]c(=O)c3CC2)cc1	-6%
CC1CCN(C(=O)C[C@@H]2c3nc(NC(=O)CC(C)(C)C)sc3C[C@@H]3[C@](C)(CO)[C@H](O)CC[C@]32C)CC1	-16%
CSc1ccc(-c2nc(CN3CCN(C(=O)N(C)C)CC3)c(C)o2)cc1	?
COc1ccc(C(=O)N2CCCC3(C2)NC(=O)N(Cc2ccc(C)cc2)C3=O)cc1OC (configuration not stated)	-2%
Cn1ccc(C(=O)N2C[C@H]3CN(C4CCOCC4)C[C@@]3(C(=O)O)C2)n1	-1%
Cc1ccc(NC(=O)N2CCCOCCNC(=O)[C@@H]3CCCC[C@@H]32)cc1C	3%
O=C(NC1CCCCC1)O[C@@H]1CO[C@H]2[C@@H]1OC[C@@H]2n1nnnc1Sc1ncccn1	6%[70.6 µM]
COc1ccc(C(=O)N2CCOC(CCCC(C)C)C2)cc1OC (configuration not stated)	0%
O=C(NCC1CN(C(=O)c2cccc(O)c2)CC12CN(c1ccccc1)C2)Nc1ccccc1 (configuration not stated)	-16%
Cc1cc(C)n(CC(=O)N2C[C@@H](CO)[C@H](c3ccncc3)C2)n1	3%
O=C1NC2(CCN(Cc3ccccn3)CC2)Oc2ccccc21	-11%[70.6 µM]
O=C(NC1CCN(c2cc(-c3cccs3)[nH]n2)C1)c1ccc(F)cc1Cl (configuration not stated)	-18%
Cc1ccc(S(=O)(=O)N[C@H](C)c2onc(-c3cccnc3)c2C(=O)O)cc1	1%[70.6 µM]
COc1ccc2c(c1)CCN=C2C[C@H]1CN(S(=O)(=O)C(C)C)CC[C@H]1CC(=O)O	5%[70.6 µM]

An excerpt from above in order of molecular weight, high to low:
SMILES	hNpr1 antagonist
O=C(NC1CCCCC1)O[C@@H]1CO[C@H]2[C@@H]1OC[C@@H]2n1nnnc1Sc1ncccn1	6%[70.6 µM]
Cc1onc(C(=O)NCc2ccc3[nH]c(-c4ccc(F)cc4)c(C)c3c2)c1CO	?
O=C(CCc1cc2n(n1)CCNC2)NCc1nc2ccc(Cl)cc2[nH]1	0%
CC(C)Oc1ccc(CN2CCc3nc(N(C)C)[nH]c(=O)c3CC2)cc1	-6%

(cont.)
SMILES	hNpr1 antagonist
O=C(O)c1ccc(CN2CCC[C@H]2c2nc(-c3ccc(OC4CCCCC4)nc3)no2)cc1	-3%
O=C(NC1CCc2nnc(C3CC3)n2CC1)c1cnco1 (configuration not stated)	3%
Cn1cc(NC(=O)CN2CCC(N3CCCC(C(=O)N4CCCC4)C3)CC2)cn1 (configuration not stated)	12%
O=C(NCc1c[nH]c2ncccc12)c1cccnc1	1%[70.6 µM]
Cc1ccsc1C(=O)N1CCCC2(C1)Nc1cccnc1NC2=NC1CCCC1 (configuration not stated)	-20%
O=C(Nc1ccc(-c2nnc3n2CCCC3)cc1)c1cnccn1	4%
COC1C(=O)N(C2CCN(C(=O)NC3CCCCC3)CC2)C12CCOCC2 (configuration not stated)	5%
COc1cc(OC)nc(N2C[C@H]3OC(=O)N(Cc4ccccc4OC)[C@H]3C2)n1	-7%
CS(=O)(=O)N1C[C@@H]2C[C@H]1C(=O)N(Cc1ccc(OC(F)(F)F)cc1)c1ccccc1O2	4%
Cn1ncc(N2CCC(NC(=O)CCC3CCCC3)CC2)cc1=O	7%
Cc1nc(C2CC2)ncc1C(=O)N(C/C=C/c1ccccc1)C1CC1	3%
O=C(c1ccccc1-c1ncn[nH]1)N1CCn2nc(Cc3ccccc3)cc2C1	-2%
COc1ccccc1NC(=O)Cn1c(-c2ccc(F)cc2)nc(C)c(CCO)c1=O	3%
CCOC(=O)C1(Cc2ccccc2)CCCN(S(=O)(=O)c2ccc(OC)c(OC)c2)C1 (configuration not stated)	-1%
Cc1cc(C(=O)NCc2cccnc2N2CCCC(O)C2)c(C)o1 (configuration not stated)	3%
NC(=O)c1cccc(-c2ncc3c(n2)OCCN(Cc2ccc(F)cc2F)C3=O)c1	0%[70.6 µM]
Cc1csc(NC(=O)c2nc(C(O)c3ccccc3)oc2C)n1 (configuration not stated)	?
Cc1ccc(C(=O)N2CCC3(CC2)N=C(c2cccc(Br)c2)NO3)cc1	?
COc1ccc(C(=O)NCc2nnc3ccc(-c4ccc(C)c(C)c4)nn23)c(OC)c1	-21%
COc1cccc(CNC(=O)C2CCN(C(=O)c3ncn4c3COC(c3ccc(C)cc3)C4)CC2)c1 (configuration not stated)	-7%
OC1CC(c2cc(N3CCc4c(Cl)cccc4C3)ncn2)C1 (configuration not stated)	2.5µM*
CC1=C[C@@H](CNC(=O)Nc2cccc(C#N)c2)[C@H](C(C)C)C[C@H]1CC(=O)NCc1ccccn1	-20%
Cn1cc(CNC(=O)C[C@@H]2C[C@H]3O[C@H](CNC(=O)Nc4cccc(Cl)c4)[C@@H](O)[C@H]3O2)cn1	3%
Cc1ccc(NC(=O)CN2C(=O)NC(c3ccc(Cl)cc3)C3=C2COC3=O)c(C)c1 (configuration not stated)	-20%
COCCN1C(=O)CS(=O)C12CCN(C(=O)NCCc1ccccc1)CC2 (configuration not stated)	-2%
COCC1CN(C(C)=O)CC12CCN(C(=O)c1cncc(C)c1)CC2 (configuration not stated)	3%
Cc1cc(C[C@@H]2COC[C@@H]2NC(=O)CCCc2nc(-c3ccco3)no2)on1	2%
Fc1ccccc1CNC1(Cc2cc(-c3ccccn3)on2)COC1	0%[70.6 µM]
COCC1CN(C(=O)Cc2ccc(OC)cc2)CC12CCNCC2 (configuration not stated)	5%
COCCC(=O)N1CCC(N2C(=O)CCC2C(=O)NCc2ccccc2)CC1 (configuration not stated)	0%
Cc1cccc(C(=O)N2CCC3(CC2)N=C(c2ccc(Cl)cc2)NO3)c1	-22%
CC1CCN(C(=O)c2ccccc2OCC2CCCN(C(C)C)C2)CC1 (configuration not stated)	-7%
COc1cccc(NCc2nc3c(n2Cc2ccccc2)C(=O)N(CC2CC2)CCN3)c1	3%[70.6 µM]
Cc1cc2c(-c3ccccc3O)nc(-c3c(C)noc3C)cc2[nH]1	7%[70.6 µM]
Cc1noc(C)c1CNC(=O)c1cc2c(s1)CCN(C(=O)c1ccc(Cl)cc1)C2	-16%
CCNC(=O)O[C@@H]1CO[C@H]2[C@@H]1OC[C@@H]2NC(=S)Nc1cccc2ccccc12	-19%[70.6 µM]
COC(=O)c1cccc(NC(=S)N[C@H]2CO[C@H]3[C@@H]2OC[C@H]3OC(=O)Nc2ccc(Oc3ccccc3)cc2)c1	?
Cc1cc2c(cc1C(=O)N[C@H](c1ccccn1)C1CC(O)C1)OCCO2 (some centres not stated)	-13%
CCNC(=O)N(C1CC1)C1CCOC2(CCN(C(=O)Cc3ccccc3)CC2)C1 (configuration not stated)	3%
CC(C)N[C@@H]1CO[C@H](CNC(=O)CC(C)(C)C)[C@H]1O	1%[70.6 µM]

Three entries out of the list above, sorted by the number in hNpr1 antagonist, falling:
SMILES	hNpr1 antagonist
Cc1cc(C[C@@H]2COC[C@@H]2NC(=O)CCCc2nc(-c3ccco3)no2)on1	2%
Cc1noc(C)c1CNC(=O)c1cc2c(s1)CCN(C(=O)c1ccc(Cl)cc1)C2	-16%
Cc1ccc(NC(=O)CN2C(=O)NC(c3ccc(Cl)cc3)C3=C2COC3=O)c(C)c1 (configuration not stated)	-20%

Later entries:
SMILES	hNpr1 antagonist
O=C(Nc1ccccc1)[C@@H]1C[C@@H](c2ccc(F)cc2)N([S+](=O)([O-])c2cccnc2)C1	-13%[70.6 µM]
COC(=O)C1=CN(CC(=O)Nc2cccc(Br)c2)S(=O)(=O)N=C1C	-13%
O=C(c1ccccn1)N1CCC(c2cc(-c3ccccc3)n[nH]2)CC1	1%
CCOc1ccc(NC(=O)Cn2c(C)ccc(NC(=O)Nc3ccc(C)cc3)c2=O)cc1	-2%
Cc1cc(C)cc(NC(=O)Cn2c(-c3cnccn3)nc(C)c(C)c2=O)c1	-14%
O=C(CCC1CCCC1)N1CCCC1c1nc(CCOCC2CCOCC2)no1 (configuration not stated)	-2%
c1ccc(Cn2nc(C3CCOC3)nc2-c2ccoc2)cc1 (configuration not stated)	0%
COc1ccc(C(=O)N2C[C@@H](CO)[C@H](c3ccncc3)C2)cc1	-12%
O=C(CN1C(=O)NC(c2ccccc2Cl)C2=C1COC2=O)Nc1ccc(F)cc1F (configuration not stated)	0%
Cn1cccc1CN1CCC2(CC1)CC(=O)c1ccc(Cl)cc1O2	-12%[70.6 µM]
CNC(=O)c1cc2cc(-c3c(C)noc3C)nc(-c3cccc(CO)c3)c2o1	0%[70.6 µM]
CCCn1c(C)c(CC(=O)NCC2COCCO2)c2c1CC(C)(C)CC2=O (configuration not stated)	-2%
O=C(c1ccc(-c2ncc3cnc(-c4cccc(F)c4)cn23)cc1)N1CCc2cccnc21	18µM*
O=C(C[C@@H]1CCNC[C@@H]1Cc1cc(CSc2ccccc2)on1)NC1CC1	4%[70.6 µM]
CCOc1ccccc1CN1CCN(C(=O)[C@H]2CCC[C@H]2NC(=O)c2ccncc2)CC1	-2%
CC(C)C(=O)Nc1ccc(C2(C(=O)NCc3ccc(F)c(Cl)c3)CCC2)cc1	-2%
O=C(O)CC1CCCN(c2cnn(CC3CC3)c(=O)c2)C1 (configuration not stated)	-13%
Cc1cc(F)ccc1NC(=O)c1cc2n(n1)CC(c1ccc(Br)cc1)OC2 (configuration not stated)	?
Cc1cccc(CC(=O)N2CCC(n3cc(-c4nc(C)no4)nn3)CC2)c1	2%
COCC(NC(=O)c1ccc2nc(C3CCCCC3)oc2c1)c1ccnn1C (configuration not stated)	?

Reformatted: entries from further up.
CCCn1c(C)c(CC(=O)NCC2COCCO2)c2c1CC(C)(C)CC2=O (configuration not stated)
  hNpr1 antagonist: -2%
O=C(c1ccc(-c2ncc3cnc(-c4cccc(F)c4)cn23)cc1)N1CCc2cccnc21
  hNpr1 antagonist: 18µM*
O=C(C[C@@H]1CCNC[C@@H]1Cc1cc(CSc2ccccc2)on1)NC1CC1
  hNpr1 antagonist: 4%[70.6 µM]
CCOc1ccccc1CN1CCN(C(=O)[C@H]2CCC[C@H]2NC(=O)c2ccncc2)CC1
  hNpr1 antagonist: -2%

Next structures follow.
SMILES	hNpr1 antagonist
O=C(Nc1cccc(Br)c1)N1CCC2(CC1)SCC(=O)N2Cc1ccco1	?
Cc1cnc(C(=O)NC2C[C@H]3CC[C@@H](C2)N3C(=O)c2ccc(C)c(C)c2)cn1 (some centres not stated)	5%
Cc1nn2c(c1-c1ccccc1Oc1ccccc1)N(CC1CCOCC1)CCC2	-16%[70.6 µM]
CN(C)C(=O)c1ccc2c(c1)N(C)C(CC(=O)NCC(C)(C)O)CO2 (configuration not stated)	0%
Cc1ccccc1NC(=O)C1CC(=O)N(c2n[nH]c3cccc(F)c23)C1 (configuration not stated)	5%
CC(C)CCN1CCCN(CCN(C)C)c2ccccc21	2%
O=C(C[C@@H]1CCNC[C@@H]1Cc1cc(-c2ccccc2)on1)N1CCOCC1	1%[70.6 µM]
